TRPML1 ag: activates the human TRPML1 channel; Q9GZU1; TRPML1-expressing cells, Ca2+ dye fluorescence, FDSS; host cell line not named in the record; reference of the full effect not given here; activation, % (no concentration beside the values); 410,000 compounds, 0.12% hits; AID 624414; in the data active = activation above about 50%; inconclusive = about 30% to 50%; inactive = below about 30%; also: 0% is about no effect; the text of the record puts the active cut at 80%
Target sequence (Q9GZU1 whole entry, looked up): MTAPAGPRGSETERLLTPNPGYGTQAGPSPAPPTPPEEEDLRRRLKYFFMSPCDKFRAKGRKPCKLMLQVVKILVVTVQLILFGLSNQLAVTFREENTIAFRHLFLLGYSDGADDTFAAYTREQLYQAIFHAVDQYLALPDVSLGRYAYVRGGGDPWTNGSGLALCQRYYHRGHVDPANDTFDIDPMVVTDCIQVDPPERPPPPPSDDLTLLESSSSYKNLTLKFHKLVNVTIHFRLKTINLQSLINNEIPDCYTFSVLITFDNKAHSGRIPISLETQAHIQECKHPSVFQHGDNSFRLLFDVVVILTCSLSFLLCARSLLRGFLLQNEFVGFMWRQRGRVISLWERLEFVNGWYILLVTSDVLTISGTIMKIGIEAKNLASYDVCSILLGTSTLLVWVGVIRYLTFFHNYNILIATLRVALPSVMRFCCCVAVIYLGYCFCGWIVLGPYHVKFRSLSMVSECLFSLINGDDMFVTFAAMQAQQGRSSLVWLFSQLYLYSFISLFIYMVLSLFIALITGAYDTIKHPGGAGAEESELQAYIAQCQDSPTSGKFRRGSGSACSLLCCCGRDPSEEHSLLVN
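TRPML1-DL cells, Tet-induced overnight (~16 h, 37 degrees C), loaded 45-90 min at room temperature with Ca8 no-wash calcium dye plus quencher. FDSS fluorescence: 10 s baseline, compound pin-transfer, 110 s agonist read, then EC80 54-4 (4uM final) and 110 s antagonist read.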
Menin MLL FP FL: displaces fluorescein MLL peptide from human menin; Fluorescence polarization, fluorescein-MLL peptide displacement from menin; FP activity change, % at 61.4 µM; 290,000 tested, under 10 active; AID 1766; inconclusive = falling polarisation curve, or a change in total fluorescence; inactive = total fluorescence flat and polarisation flat or rising; no compound was filed as active; the % refers to the polarisation; negative = inhibition;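 also: % of control where 0% means no effect; inhibitors lower the polarisation; unlabelled MLL peptide was the positive control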
TRPML1 blocker: human mucolipin-1 channel inhibition; TRPML1-inducible cells, Ca2+ dye fluorescence, FDSS; stronger effect = lower value; inhibition of EC80 agonist-evoked calcium signal; AID 624415; activity change, negative = inhibition, % (no concentration beside the values); 390,000 compounds, 0.02% hits; in the data active means activity change below about -50%; inconclusive means about -30% to -50%; inactive means above about -30%;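 also: stimulus is agonist 54-4 at its EC80 concentration; % is scaled to controls: 0 for no effect and ±100 for the full control effect; compound concentration not given in the record; the text of the record puts the active cut at -80%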
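TRPML1-DL cells, Tet-induced overnight (~16 h, 37 °C) at 1,500 cells/well, were loaded with Ca8 no-wash dye plus quencher for 45-90 min at room temperature. Compounds were pinned during FDSS kinetic reading; agonist 54-4 at EC80 (4 uM final) then added.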
gsp antagonist: antagonists of gsp mutant (McCune-Albright syndrome) | gsp-mutant cells, cAMP HTRF, 30 min; control for the full effect not named in the record | 340,000 compounds, 0.4% hits | Potency, µM (highest dose often 76.9 µM), for inactives: top-dose activity change, negative = inhibition, actives largely listed as inhibitors | AID 624288; active = falling curve of any shape with a large fitted effect; inconclusive = falling curve, mostly with a smaller effect; inactive = flat or rising curve; cell line not stated here;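 also: intracellular cAMP measured with PDE inhibitor Ro 20-1724 present during compound exposure; potency is read from the fitted curve at half-maximal effect; % is scaled to controls: 0 for no effect and ±100 for the full control effect; nearly all actives have a fitted effect of over 65% in size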
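HTRF cAMP read-out (cAMP-d2 plus anti-cAMP antibody-K in lysis buffer, 30 min RT). Before lysis, cells are exposed to compounds with […] for 30 min at 37C in DPBS containing Ca/Mg, BSA and Tween 20.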
gsp agonist: agonists of gsp mutant (McCune-Albright syndrome) | gsp mutant cells, cAMP HTRF, 30 min; control for the full effect not named in the record | Potency, µM (highest dose often 76.9 µM), inactives show top-dose activation (cAMP increase), actives largely listed as activators | 340,000 compounds, 0.13% hits | AID 624287; active = well fitted activation curve with a large enough effect; inconclusive = small, poorly fitted or top-dose-only effect, or another doubt; inactive = no such curve, though single readings can be large or run the other way; cell line not stated here;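 also: phosphodiesterase inhibitor Ro 20-1724 added with compounds to block cAMP breakdown; potency is read from the fitted curve at half-maximal effect; nearly all actives have a fitted effect of over 60% in size; about a fifth of the inactives were tested at one dose only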
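Cells stably selected in G418 were plated at 2000/well, grown 16-24 hr, then given compounds in DMSO with the PDE inhibitor […] (300 uM solution added) for 30 min at 37C; cAMP was read by HTRF.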
ClpP mod: qHTS Assay for Activators of ClpP. ATP-dependent Clp protease proteolytic subunit (Bacillus subtilis (strain 168)), P80244. purified B. subtilis ClpP, FRET peptide cleavage, 20 min. 340,000 compounds, 1.9% hits. Potency, µM (highest dose often 57.5 µM), for inactives: top-dose activity change, negative = active; active = well fitted falling curve with a large enough effect; inconclusive = small, poorly fitted or top-dose-only effect; inactive = no such curve, though single readings can be large or run the other way; also: potency is read from the fitted curve at half-maximal effect; the source files actives as falling curves though it sought activators and does not explain the sign; nearly all actives have a fitted effect of over 65% in size; many hits overshoot -100%
Target sequence (P80244 whole entry, looked up): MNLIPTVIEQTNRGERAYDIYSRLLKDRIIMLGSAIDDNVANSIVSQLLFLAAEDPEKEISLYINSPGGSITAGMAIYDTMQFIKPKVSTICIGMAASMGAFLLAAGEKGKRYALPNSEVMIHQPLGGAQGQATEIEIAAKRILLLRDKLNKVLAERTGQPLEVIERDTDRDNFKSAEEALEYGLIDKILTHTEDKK
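Purified B. subtilis ClpP, 10 microg/mL final in Tris/HCl pH8 with KCl, BSA, glycerol and Tween-20, cleaved an Abz/nitrotyrosine-quenched decapeptide. Fluorescence (ex 320, em 430) was read at 0 and 20 min at room temperature. Delta was normalized to 5.8 microM ADEP and DMSO/no-enzyme controls.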
Starred values were filed as active, the others as inactive; ? = inconclusive; · = not tested or not shown; [ ] = dose if it differs, or a comment.

SMILES	TRPML1 ag	Menin MLL FP FL	TRPML1 blocker	gsp antagonist	gsp agonist	ClpP mod
CCOc1ccc(-n2ccn3c(CC(C)CC(=O)O)nnc3c2=O)cc1 (configuration not stated)	-1.0	·	-20.6	·	·	0.6%
COc1ccccc1NNC(=O)C(O)(c1ccccc1)c1ccccc1	2.9	5.8	13.6	3.3%	14.6%[15.4 µM]	·
Cc1ccc(Cl)cc1NC(=O)Nc1nnc(N(C)Cc2ccccc2)s1	0.7	·	20.4	·	·	-0.2%
CCOCC(=O)Nc1cc(C(F)(F)F)ccc1Oc1cccc(Br)c1	3.2	2.2	61.9	-4.7%	19.1%	-1.4%
O=C(CN1CCC(O)(c2cccc(F)c2)CC1)NCCc1c[nH]c2ccccc12	-0.1	0.1	10.3	2.1%	11.4%	-8.0%
Cc1ccccc1NC(=O)CSc1ccc(-c2ccc(-n3cccn3)cc2)nn1	-0.4	·	7.2	-1.7%	4.5%	0.2%
COc1cccc(C2C(C(N)=O)=C(C)Nc3ncnn32)c1 (configuration not stated)	-0.1	·	19.8	·	·	0.3%
COc1cccc(CN2CCCCC2C(=O)O)c1 (configuration not stated)	0.7	-0.5	4.8	15.0%	12.3%[15.4 µM]	·
O=C(CN1C(=O)NC(Cc2ccccc2)C1=O)Nc1ccc(OC(F)F)cc1 (configuration not stated)	0.6	·	14.8	10.6%	-22.7%[15.4 µM]	1.6%
NC(=O)Nc1ccc(C(=O)OCC(=O)Nc2cccc(S(=O)(=O)NC3=NCCC3)c2)cc1	1.2	·	-3.8	5.6%	-33.7%	0.0%
CC(C)N(Cc1nc(-c2ccc(Cl)cc2)no1)C(=O)C12CC3CC(CC(C3)C1)C2	0.9	5.0	-7.1	5.2%	-25.1%	1.9%
COc1ccc(CCNC(=O)COc2cc(C)cc3oc(=O)cc(C)c23)cc1	1.2	-0.7	-0.9	-5.8%	-7.3%	-8.2%
CN(CCO)S(=O)(=O)c1ccc2c(c1)C(=NNC(N)=O)c1cc(S(=O)(=O)N(C)CCO)ccc1-2	0.6	-0.7	-16.4	3.6%	-12.9%	-1.8%
Cc1ccccc1NC(=O)CSc1nc2ccc(NC(=O)c3cccs3)cc2s1	2.1	·	-2.5	·	·	9.9%
CCOc1ccccc1OCC(=O)NN1Cc2ccccc2C1=N	0.6	-1.5	1.6	15.4%	-13.4%	0.3%
CC[C@]1(C(=O)OC)[C@H]2C(=O)N(Cc3ccccc3)C(=O)[C@H]2[C@H]2CN=C(SCc3ccc(C)cc3)N21	-0.6	·	-2.0	-1.5%	·	-1.1%
CC(C)(C)OC(=O)[C@H](Cc1ccccc1)NC(=O)c1nc[nH]c1C(=O)NC1CCNCC1	-0.5	·	33.8	14.7%	·	-1.0%
CCN(CC)CCN(CC(=O)N(C1CCCCC1)C1CCCCC1)C(=O)c1cccnc1	-0.2	2.4	-2.6	4.0%	9.7%	·
O=C(O)c1cc(N/N=C/c2ccc(N3CCOCC3)s2)ccc1Cl	1.4	19.2	-11.2	-4.2%	-15.7%	-4.2%
O=C(CSc1ccc(-c2ccc(F)cc2)nn1)N1CCOCC1	0.2	-2.5	10.7	-0.5%	?	-1.2%
Cc1ccc(C)c(N2CCN(S(=O)(=O)c3ccc4[nH]c5c(c4c3)CCCC5)CC2)c1	2.6	·	20.3	·	·	?
N#Cc1cccc(NC(=O)CSc2cccc[n+]2[O-])c1	-1.3	·	-5.5	-6.0%	-36.0%[inhibitor]	·
Cc1[nH]nc2nc(SCC(=O)NCCC3=CCCCC3)n(-c3ccc(Br)cc3)c(=N)c12	1.3	-0.3	10.5	-4.2%	-0.3%	?
N#CC1(c2ccc(NC(=O)c3ccccc3F)cc2)CCCC1	-0.1	-0.7	0.1	4.2%	7.2%	-1.3%
CCCCn1c(CNC(=O)C23CC4CC(CC(C4)C2)C3)nnc1SC(C)CC (configuration not stated)	0.5	-1.4	16.1	-16.3%	13.9%	-1.8%

2 entries drawn at random from the list so far, as already listed:
SMILES	TRPML1 ag	Menin MLL FP FL	TRPML1 blocker	gsp antagonist	gsp agonist	ClpP mod
CCOc1ccccc1OCC(=O)NN1Cc2ccccc2C1=N	0.6	-1.5	1.6	15.4%	-13.4%	0.3%
CCOc1ccc(-n2ccn3c(CC(C)CC(=O)O)nnc3c2=O)cc1 (configuration not stated)	-1.0	·	-20.6	·	·	0.6%

Additional entries:
SMILES	TRPML1 ag	Menin MLL FP FL	TRPML1 blocker	gsp antagonist	gsp agonist	ClpP mod
CC1CC2CCCC(O)=C2C(=O)O1 (configuration not stated)	-0.3	·	-6.8	6.1%	?	-4.3%
CCN(CC(=O)Nc1ccc(NC(C)=O)cc1)C(=O)CCCOc1ccc(C(C)(C)C)cc1	0.6	·	15.4	-2.5%	-15.6%	1.3%
COc1ccc(NC(=O)CCCn2c(=O)c3cccn3c3ccccc32)c(OC)c1	2.8	·	0.6	·	·	-3.3%
CCOc1ccc(C2C(C#N)=C(N)N3C(=C2C#N)Sc2ccccc23)cc1 (configuration not stated)	4.8	?	-6.4	?	0.9%	-4.3%
COc1ccccc1CNCC(=O)Nc1ccc(C(F)(F)F)cc1	0.2	1.3	7.5	7.4%	-9.0%	-0.6%
Cc1ccc(NC(=O)CCC(=O)NNC(=O)c2cccs2)c(C)c1	0.2	0.9	-12.9	9.5%	0.3%	-3.4%
CSc1ccc(CN(C)C(=O)C(c2ccccc2)c2ccccc2)cc1	·	3.4	·	-22.9%	-2.9%	0.5%
CCS(=O)(=O)N1Cc2ccccc2CC1C(=O)Nc1nc(C)cs1 (configuration not stated)	2.2	1.5	7.1	·	-15.2%[15.4 µM]	·
Cn1c(N2CCOCC2)c(/C=N/OC(=O)c2cccnc2Cl)c2ccccc21	-0.4	-2.2	3.9	-3.9%	-4.9%[15.4 µM]	·
Cc1cccc(C(C(=O)NC2CCCC2)N(C(=O)c2csnn2)C2CC2)c1 (configuration not stated)	0.1	-2.4	0.4	1.1%	?	·
CCOC(=O)c1ccccc1NC(=O)N1CCN(Cc2cc(=O)n3nc(-c4ccccc4)sc3n2)CC1	-0.6	·	-1.9	·	·	0.1%
O=C(NCC1COCCO1)c1cc(COc2ccc(F)cc2F)on1 (configuration not stated)	-0.1	·	11.9	10.5%	30.3%	-0.8%
Cc1noc(NS(=O)(=O)c2ccc(NS(=O)(=O)c3ccc(Cl)cc3)cc2)c1C	-0.1	·	1.8	13.6%	11.9%[15.4 µM]	0.0%
COc1cc(Cl)c(C)cc1NC(=O)c1cn(C2CCCC2)c(=O)c2c1c1ccccc1n2C	0.0	·	-4.2	·	·	-7.5%
Cc1c(C)n(C(=O)CN2CCC(C)CC2)c2ccccc12	2.6	0.2	38.0	2.4%	2.2%	-1.7%
C=CCSc1nc2ccccc2c(=O)n1C1CCOC(C)(C)C1 (configuration not stated)	2.6	0.8	-7.5	?	13.5%[15.4 µM]	·
CCC(C)c1ccccc1NC(=O)Cc1coc2cc3c(cc12)CCC3 (configuration not stated)	1.2	8.0	-2.9	-5.2%	4.0%	0.8%
Cc1cc(NS(=O)(=O)c2ccc(NC(=O)COc3cc(C)c(Br)cc3C(C)C)cc2)no1	0.2	·	6.0	·	·	-2.1%
CC(C)(C)c1ccc(S(=O)(=O)N2CCC(CO)(CC3CCCCO3)CC2)cc1 (configuration not stated)	-1.1	-3.3	23.0	-28.4%	-5.3%[15.4 µM]	0.3%
Cc1cc(C)nc(Nc2n[nH]c(-c3ccccc3N)n2)n1	-0.1	0.3	-6.9	-1.4%	-17.0%[15.4 µM]	·
CC(C)C(=O)N1CCN(S(=O)(=O)c2ccc3ccccc3c2)CC1	-0.2	-0.4	-21.7	-9.4%	-14.3%[15.4 µM]	·
COc1ccc(C2C3=C(CC(C)(C)CC3=O)Oc3ncn(Cc4ccco4)c(=N)c32)cc1 (configuration not stated)	0.0	1.7	0.9	-6.1%	-53.3%[inhibitor]	-2.8%
O=C(O)c1ccc(-c2ccc(/C=C3\NC(=O)N(Cc4ccc(Cl)cc4)C3=O)o2)cc1	-0.5	15.1	5.5	-21.4%	-10.0%	-7.7%
COc1cccc(NC(=O)c2cc(-c3ccc(C)o3)nc3ccccc23)c1	-0.5	1.3	-1.0	-7.3%	1.7%	-7.7%
CCCCOC(=O)C1CN(c2ccccc2)N=C1C(C)=O (configuration not stated)	4.8	-3.6	15.3	4.6%	-3.2%[15.4 µM]	·
Continuation.
SMILES	TRPML1 ag	Menin MLL FP FL	TRPML1 blocker	gsp antagonist	gsp agonist	ClpP mod
COCCn1nnnc1C(C(C)C)N1CCSCC1 (configuration not stated)	0.8	-0.3	9.9	-3.4%	-0.1%	0.6%
CCc1ccc(CNc2ncnc3c2nc2n3CCCC2)cc1	2.7	·	3.8	·	·	-9.7%
O=C(NCc1ccc(F)cc1)C1CCCN1C(=O)Nc1cccc(F)c1 (configuration not stated)	-0.8	-4.9	-3.2	0.5%	?	-0.5%
Cn1c(=O)[nH]c(=O)c2c1nc(CN1CCOCC1)n2CCc1ccccc1	-0.5	-1.2	0.6	4.0%	4.2%	-1.1%
O=C(CN1CCOCC1)Nc1cccc(Br)c1	1.1	-0.5	18.2	11.7%	-5.8%	-2.2%
CC(OC(=O)c1cc(=O)c2ccccc2o1)C(=O)Nc1ccc(N(C)C)cc1 (configuration not stated)	-0.1	·	1.6	-8.7%	10.9%	3.6%
COc1ccc(NC(=O)CSc2nnc(-c3ccc(OC)cc3)s2)cc1	0.2	·	3.1	·	·	2.7%
Cc1cc(C)n2nc(-c3cnn(C)c3C(F)(F)F)c(Cl)c2n1	0.4	1.8	-10.7	12.2%	-13.2%	-3.7%
CC(C)C(NC(=O)c1ccc(Cl)cc1Cl)C(=O)NCCc1ccccn1 (configuration not stated)	-0.3	·	-13.4	0.2%	-9.4%	2.9%
CCOC(=O)c1[nH]c(C)c(CCC(=O)Nc2ccc(Br)c(C)c2)c1C	-0.5	·	5.1	·	·	-3.5%
CCCCn1c(SCC(=O)NC2CCS(=O)(=O)C2)nc2ccccc2c1=O (configuration not stated)	0.4	·	4.7	-2.4%	2.2%	-0.1%
Cc1cccc(C(=O)N[C@H](C(=O)NCc2cccs2)C(C)C)c1	-0.3	·	-1.6	3.6%	15.4%	-0.6%
COc1cccc(NC(=O)CNC(=O)N2CC(=O)Nc3ccccc32)c1	-0.4	-0.4	24.3	?	8.0%	-0.4%
N#CC(C#N)=c1ccc2c(c1)N1C(c3ccccc3)=CC(c3ccccc3)C3CCCCC31N=2 (configuration not stated)	-0.5	10.0	10.3	11.3%	-22.6%[15.4 µM]	·
CCOC(=O)c1c(C)[nH]c(C(=O)N2CCN(CC)CC2)c1C	0.0	-4.7	4.1	7.1%	-25.6%[15.4 µM]	·

Compound activity deposited in PubChem by National Center for Advancing Translational Sciences (NCATS).
